Screens as filed in PubChem BioAssay.
Measles inh: inhibitors of measles virus growth in infected cells. infected Vero cells, GFP fluorescence, 64 h; active compounds read low. 0.1% of 33,000 active. AID 745. z-score (concentration not given with the values);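 active means z-score under -3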;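 further: score is relative to mean and SD of the compound wells of a plate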
An asterisk follows results filed as active. This is a subset, so the mix of outcomes need not match the whole.

A first look:
Compound	Measles inh
O=C1CC(c2ccc(Cl)cc2)Sc2nc(C34CC5CC(CC(C5)C3)C4)nn21 (centres undefined)	0.55
O=[N+]([O-])c1ccc(Cl)c(-c2ncnn2-c2ccc(F)cc2)c1	-0.17

The listing (from the top)
Compound	Measles inh
O=C1CC(c2ccc(Cl)cc2)Sc2nc(C34CC5CC(CC(C5)C3)C4)nn21 (centres undefined)	0.55
O=[N+]([O-])c1ccc(Cl)c(-c2ncnn2-c2ccc(F)cc2)c1	-0.17
O=C(Nc1ccc2oc(-c3ccc(F)cc3)nc2c1)c1ccc2ccccc2c1	0.4
COC(=O)c1ccc(NC(=O)c2oc(=O)c3ccccc3c2-c2ccc(C)cc2)cc1	-0.25
COc1ccccc1C1/C(=C(\O)c2ccccc2)C(=O)C(=O)N1CC(C)O (centres undefined)	-0.13
O=C(NCC1COc2ccccc2O1)c1cc(-c2cccnc2)nc2ccccc12 (centres undefined)	0.59
Cc1ccc(N2C(=O)C(N3C(=O)c4cccc([N+](=O)[O-])c4C3=O)C2c2ccc3c(c2)OCO3)cc1Cl (centres undefined)	1.7
COc1ccc(OC)c(Nc2nc(-c3c(C)nc4sccn34)cs2)c1	-0.01
CCC(C)NC(=O)c1cc(Nc2ccc(C(C)C)cc2)nc2ccccc12 (centres undefined)	-1.1
C(#Cc1ccccc1)CN1CCCCC1	-0.71
COc1ccc(Cl)cc1NC(=O)c1sc2cc(C)ccc2c1Cl	1.6
O=S(=O)(c1ccc(Br)cc1)C(F)(F)F	-0.06

Compound	Measles inh
CC(C)OCCCNC(=O)c1cc(Nc2cccc(C(F)(F)F)c2)nc2ccccc12	-2
Cc1ccc(NC(=O)c2sc(=S)n(CCc3ccccc3)c2N)cc1	-1
CCOC(=O)c1c(NC(=O)c2cccs2)sc(C(=O)Nc2ccc(C)cc2)c1C	0.31
O=C(NCc1ccc2c(c1)OCO2)c1ccc2c(=O)n(-c3ccccc3)c(=S)[nH]c2c1	-1.1
COc1ccc(C(=O)CC2(O)C(=O)Nc3ccc(Br)cc32)cc1[N+](=O)[O-] (centres undefined)	-0.53
O=C1C2C3C=CC(C3C3=CCCC3)C2C(=O)N1c1cccc([N+](=O)[O-])c1 (centres undefined)	1.7
O=C(CN1CCN(S(=O)(=O)c2ccc(F)cc2)CC1)Nc1ccccc1F	1.3
O=C(O)C1C(=O)Nc2ccccc2C1=O (centres undefined)	0.01
CCOC(=O)c1ccc2nc(Cl)c(CCCl)cc2c1	0.6
COc1ccc(Br)cc1C(=O)Nc1cc(-c2nc3cc(C)ccc3o2)ccc1Cl	-0.34
CCNc1nc2c(c(=O)n(C)c(=O)n2C)n1CC(O)COc1ccccc1C (centres undefined)	-0.89
COc1ccc(-n2nc(C(=O)NCC(=O)NC(C)C)c3ccccc3c2=O)cc1OC	1.9

Some of the entries above, set out differently.
CC(C)OCCCNC(=O)c1cc(Nc2cccc(C(F)(F)F)c2)nc2ccccc12
  Measles inh = -2

Cc1ccc(NC(=O)c2sc(=S)n(CCc3ccccc3)c2N)cc1
  Measles inh = -1

CCOC(=O)c1c(NC(=O)c2cccs2)sc(C(=O)Nc2ccc(C)cc2)c1C
  Measles inh = 0.31

O=C(NCc1ccc2c(c1)OCO2)c1ccc2c(=O)n(-c3ccccc3)c(=S)[nH]c2c1
  Measles inh = -1.1

Of the compounds above, these have a thiophene ring, fused or not:
Compound	Measles inh
COc1ccc(Cl)cc1NC(=O)c1sc2cc(C)ccc2c1Cl	1.6
CCOC(=O)c1c(NC(=O)c2cccs2)sc(C(=O)Nc2ccc(C)cc2)c1C	0.31

Next section:
Compound	Measles inh
Cn1c(=O)c(C(=O)Nc2cccc(F)c2)c(O)c2ccccc21	-0.11
COC(=O)c1cccc(Oc2nnc(-c3ccc(C)c(C)c3)c3ccccc23)c1	-1.1
CSCCC(=O)N1C(C)CCCC1C(=O)O (centres undefined)	0.9
CC(=O)N1CCN(c2nc(-c3ccccc3)c3cc(Br)ccc3n2)CC1	-0.42
O=C(COc1ccc(Cl)cc1)N1CCN(C(=O)c2cccs2)CC1	-0.3
O=C(NCCN1CCOCC1)c1ccc(-c2ccccc2)cc1	-0.03
Cc1nc2c3ccccc3nc(SCC(=O)N3CC(C)CC(C)C3)n2n1 (centres undefined)	1.7
CCCCn1c(SCC(N)=O)nc2c(sc3ccccc32)c1=O	-0.3
COc1ccc(CNCc2ccc3c(c2)OCO3)cc1OC	0.48
COc1cccc(C(=O)Nc2c3c(nn2-c2ccc(C)cc2C)CSC3)c1OC	-1.4
COc1ccc2c(c1OC)C(=O)N(c1ccc([N+](=O)[O-])cc1)C2	1.1
O=C(c1cc(Sc2ccc(F)cc2)nc2ccccc12)N1CCCCC1	-0.83

Compound	Measles inh
COc1ccc(Br)cc1CNC(=O)c1ccc(N2CCCC2)c(NS(=O)(=O)c2ccc(C)cc2)c1	0.13
O=[N+]([O-])c1c(NCc2ccccc2)cc(N2CCOCC2)c2nonc12	0.32
O=C(NC1CCCC1)c1ccc2nc3cc(Cl)ccc3c(=O)n2c1	0.85
COc1ccc(CCNC(=O)Cn2c(=O)n(-c3ccc(F)cc3)c(=O)c3c(C)c(C)sc32)cc1OC	-0.46
COc1cc(OC)cc(-c2nc3ccc(C)cc3c(=O)o2)c1	-0.5
NC(=O)C1CCN(C2CC(=O)N(c3ccccc3[N+](=O)[O-])C2=O)CC1 (centres undefined)	0.87
Cc1c(Sc2ccc(Cl)cc2)c(=O)[nH]c2cc3c(cc12)OCO3	0.69
CSc1nc2ccccc2c(=O)n1CCCN1CCCC1=O	0.97
Cc1ccc(Cn2c(=S)[nH]c3c(sc4ccccc43)c2=O)cc1	-0.02
CC(C)CCNC(=O)c1cc(S(=O)(=O)N2CCCC(C)C2)ccc1F (centres undefined)	1.5
CCOc1ccc(S(=O)(=O)N(C)Cc2ccccc2)c2cccnc12	0.81
CC(=O)Nc1ccc(S(=O)(=O)Nc2ccc(C(=O)c3ccccc3)cc2)cc1	-0.03

Compound	Measles inh
COc1ccc(-n2c(-c3ccc([N+](=O)[O-])cc3)nc(=S)c3c2CCCC3)cc1	0.19
COc1ccccc1-n1c(C)cc(C(C[N+](=O)[O-])c2ccc(C)cc2)c1C (centres undefined)	-1.3
COc1ccc(C(=O)Oc2cccc3cccnc23)cc1OC	-0.37
COc1ccccc1NC(=O)c1cc(-c2ccccc2)nc2ccccc12	-0.34
Cc1cc(NC(=O)c2cc(C)on2)no1	0.66
O=C1Nc2ccc(F)cc2C12Nc1ccccc1-c1nnc(SCc3ccccc3F)nc1O2 (centres undefined)	-1.9
Cn1c(=O)n(CC(=O)Nc2ccccn2)c(=O)c2ccccc21	-0.59
Cc1nc(C23CC4CC(CC(C4)C2)C3)c(C)s1	-0.41
O=C(Nc1cccc(-c2nnc(-c3ccccc3)o2)c1)c1cccc(S(=O)(=O)N2CCOCC2)c1	-0.37
Cc1ccc(S(=O)(=O)N(CCc2ccccc2)CC(=O)Nc2cc(C)ccc2C)cc1	0.23
CSc1ccc(CN2CCN(Cc3ccccn3)CC2)cc1	0.48
O=C(C1CCN(S(=O)(=O)N2CCOCC2)CC1)N1CCN(Cc2ccc3c(c2)OCO3)CC1	-0.47

Compound	Measles inh
Clc1ccc(CNc2ncnc3sc4c(c23)CCCC4)cc1	0.25
COc1ccccc1Oc1ccc(S(=O)(=O)NCCC(=O)O)cc1	0.05
O=C(NCC1CCCO1)c1c(O)c2c([nH]c1=O)CCCC2 (centres undefined)	1.2
O=C(c1ccncc1)N1CCN(Cc2ccc3c(c2)OCO3)CC1	-0.46
CN(Cc1ccccc1)Cc1c(O)ccc2c(=O)c(Oc3ccccc3Br)c(C(F)(F)F)oc12	-2.6
CC1CCCN(C(=O)c2ccc3c(c2NCCO)C(=O)c2ccccc2C3=O)C1 (centres undefined)	-2.2
CCC(=O)Nc1c2c(nn1-c1ccc(OC)cc1)CS(=O)(=O)C2	0.08
COc1ccc(C(=O)Oc2c(S(=O)(=O)c3ccccc3)c(C)nn2-c2ccc(C)cc2C)cc1OC	0.44
O=C1c2oc3ccccc3c(=O)c2C(c2cccc(Cl)c2)N1c1nccs1 (centres undefined)	1.1
CN1C(=O)COc2ccccc21	0.39
CCOC(=O)c1cccc(C(=O)Nc2ccccc2[N+](=O)[O-])n1	0.33
Cc1cc(C)n2nc(CC(=O)NCc3ccccc3Cl)nc2n1	1.9

Compound	Measles inh
CCOc1ccc(C2C=C(c3cccnc3)Nc3ncnn32)cc1OC (centres undefined)	-0.17
O=C(Cn1nc(-c2ccccc2)ccc1=O)NCc1ccccn1	0.6
COc1ccc(Cl)cc1NC(=O)C1=C(C)NC(=S)NC1c1ccccc1F (centres undefined)	-0.02
O=C(NCCc1ccc(Cl)cc1)c1cc(-c2cccnc2)nc2ccc(S(=O)(=O)N3CCCCCC3)cc12	1.8
O=C(Nc1ccc(NC(=O)c2ccc(I)o2)cc1)c1ccc(Br)cc1	-0.6
N#Cc1ccc(Oc2ccc(N3C(=O)c4ccccc4C3=O)cc2)cc1	0.57
CC1=C(C(=O)OC2CCCC2)C(c2ccc(N(C)C)cc2)C2=C(CC(C)(C)CC2=O)N1 (centres undefined)	-0.69
COc1ccc(N(CC(=O)NC2CCCCC2)S(=O)(=O)c2ccccc2)cc1Cl	-1.7
O=C(Nc1ccc(Cl)cc1)C1CCN(S(=O)(=O)c2cccnc2)CC1	-0.56
CC1CCc2c(sc(NC(=O)c3ccc(Cn4cc(Br)cn4)o3)c2C(N)=O)C1 (centres undefined)	0.29
CCN(CC)C(=O)C1c2cc(OC)c(OC)cc2C(=O)N(C)C1c1ccccc1F (centres undefined)	-0.49
Cc1ccc(C(=O)Nc2cccc(-c3nc4ccccc4s3)c2)cc1	-0.45

Compound	Measles inh
CCOC(=O)c1sc(NC(=O)C(F)(F)F)c(C(=O)OC)c1C	-0.8
COc1ccccc1N(CC(=O)N(C)Cc1ccccc1)S(C)(=O)=O	-0.41
O=S(=O)(Nc1ccc(Br)cc1)c1ccccc1	0.41
Cc1ccc(-n2nc3c(c2NC(=O)Cc2ccccc2)CS(=O)(=O)C3)c(C)c1	-0.35
O=C(c1ccncc1)N1N=C(c2ccc(F)cc2)CC1(O)C(F)(F)F (centres undefined)	0.82
O=C(CNS(=O)(=O)c1ccc(Br)s1)Nc1ccc(Cl)cc1	-0.3
O=C1CCCN1CCCn1c(=S)[nH]c2ncccc2c1=O	-0.42
Cc1ccc(-n2cc(-c3ccccc3)c3c(N4CCCC4)ncnc32)cc1Cl	0.95
COc1ccc([N+](=O)[O-])cc1NC(=O)c1ccccc1Oc1ccccc1	0.64
O=C(NCCCN1CCOCC1)c1ccco1	0.38
CCSc1nc2ccc(NC(=O)c3sc4nc(-c5ccncc5)ccc4c3N)cc2s1	-0.05
O=C(Cn1cnc2scc(-c3ccccc3)c2c1=O)c1ccccc1	-0.57

Compound	Measles inh
CC(=O)C1C(=O)CC(C)(O)C(C(C)=O)C1c1ccc(C(C)(C)C)cc1 (centres undefined)	0.78
Cc1cccc(-c2nc(Oc3ccc(C#N)cc3)c3ccccc3n2)c1	0.07
CCc1ccc(S(=O)(=O)N=C2C=C(Nc3ccccc3C(=O)OC)C(=O)c3ccccc32)cc1	-0.16
COc1ccc(-c2nc(-c3cccc(C)c3)no2)cc1[N+](=O)[O-]	-1.4
CCCCNC(=O)CCN1N=C(c2ccccc2)CCC1=O	-1.4
O=C(Nc1cc(C(=O)N2CCN(c3ccccc3Cl)CC2)ccc1N1CC2CC(C1)c1cccc(=O)n1C2)c1ccccc1Br (centres undefined)	-0.75
Clc1cccc(-n2ncnc2-c2ccc(Br)cc2)c1	-0.31
COc1ccccc1CNC(=O)C1c2cc(OC)c(OC)cc2C(=O)N(C)C1c1cccs1 (centres undefined)	-0.55
CC1CN(S(=O)(=O)c2ccc(NC(=O)C(C)N3C(=O)c4ccccc4C3=O)cc2)CC(C)O1 (centres undefined)	-0.94
O=C(NCc1ccccc1)c1noc2c1CCCC2	-0.16
O=[N+]([O-])c1cc(S(=O)(=O)C(Cl)(Cl)Br)ccc1NC1CCCC1	-1.4
Cc1nn(-c2ccccc2)c2sc(C(=O)Nc3ccccc3F)cc12	-0.74

Compound	Measles inh
CCC(C)Sc1nc2c(c(=O)n1-c1ccccc1)SCC2 (centres undefined)	-0.22
CC1=C(C(=O)OC(C)C)C(c2ccc(Br)s2)NC(=O)N1C (centres undefined)	-0.26
Cc1onc(-c2ccccc2)c1C(=O)N1CC(C)N(C(=O)c2c(-c3ccccc3)noc2C)CC1C (centres undefined)	-0.34
Cc1ccc(Cc2c(C)nc3c(C(=O)N(C)CCc4ccccn4)cnn3c2C)cc1	0.83
CCOc1ccc(NC(=O)CN(c2ccccc2OC)S(C)(=O)=O)cc1	-0.7
Cc1ccnc(NC(=O)c2cccs2)c1	0.15
COc1ccc2c(c1)-c1c(sn(-c3ccccc3C)c1=S)C(C)(C)N2	-0.68
Cc1ccc(Cc2cnc(NC(=O)COc3cccc(C(F)(F)F)c3)s2)cc1	-0.57
CC(=O)Nc1ccc(C(=O)CSc2nc3ccccc3c(=O)[nH]2)cc1	-1.4
Cc1cc(NC(=O)c2noc3c2CC(C)CC3)no1 (centres undefined)	-1.3
COc1cccc(C2C3=C(CC(C)(C)CC3=O)OC(N)=C2[N+](=O)[O-])c1 (centres undefined)	0.45
C1=C(c2ccccc2)CC(c2ccccc2)=NN=C1c1ccccc1	1.9
COc1ccc(-c2csc(Nc3ncccc3C)n2)cc1C	-0.57
CC(=O)NCCNC(=O)c1ccc(Cn2c(=S)[nH]c3cc4c(cc3c2=O)OCO4)cc1	0.97
COc1cc(NC(=O)CCN2CC(C)OC(C)C2)cc(OC)c1 (centres undefined)	0.53
